PrP UTR inh: inhibition of PrP 5' UTR reporter expression; cell-based PrP 5' UTR mRNA reporter, plate reader; inhibition, % (test concentration not listed); hit rate 0.35% among 340,000;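 active means every replicate at 50% or more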;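 further: 0 = median of the neutral control wells; tested in H4 reporter cells; numbers are from one replicate; inactives centre near -14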
BJeLR lethal: kills HRASV12-expressing BJeLR cells. BJeLR (HRASV12) viability, CellTiter-Glo ATP luminescence, 48 h; reference of the scale not given here. inhibition, % (concentration not given with the values). hit rate 0.17% among 300,000. AID 1554;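 active means replicate mean above 50%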;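 further: 50 nL library stock added to about 25 µL; numbers are from one replicate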
ugtP null kill: compounds lethal to S. aureus RN4220 ugtP deletion mutant | AID 1259309 | hit rate 0.54% among 330,000 | OD600 growth, 16 h; some inactives read as strong as hits | growth inhibition, % (no concentration beside the values);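 active means z-score under -3 and OD600 up to 0.15 on both plates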;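 further: plate controls were untreated wells for no effect and antibiotic for full effect; wells of about 80 µL received 100 nL stock; the first replicate is given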
Bead autofluor: counter-screen for toxin protease inhibitors: compound fluorescence; compound autofluorescence counterscreen, microsphere flow cytometry; hits give high values; fluorescence intensity (test concentration not listed); hit rate 3.1% among 360,000; AID 624483;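 active means at least 3 SD above the mean of all compounds, about 16000 in these data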;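 further: 100 nL of 1 mM stock went into each well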
Mtb hypoxia inh: reduces hypoxia-regulated biosensor signal in M. tuberculosis; M. tuberculosis hypoxia-regulated fluorescent reporter, fluorescence; fluorescence inhibition, % (concentration not given with the values); hit rate 0.1% among 300,000; AID 1159583;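 active means 35 to 45% if threefold the growth effect, above 45% if 1.5-fold the growth effect; inactive means the rest, general growth blockers included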;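 further: wells of about 50 µL received 100 nL stock; 0% = vehicle wells and 100% = reference inhibitor wells; whole bacteria with a GFP reporter of the hypoxia response; strong numbers were not always called active; many hits fall short of the cut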
Sa RN4220 lethal: kills Staphylococcus aureus RN4220; S. aureus RN4220 growth, OD600, 16 h; inhibition, % (concentration not given with the values); hit rate 0.33% among 330,000; AID 1259311;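 active means z-score of -3 or lower and OD600 up to 0.18 on both plates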;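 further: plate controls were untreated cells for no effect and reference antibiotic for full effect; stock transfer was 100 nL into about 80 µL; one replicate is shown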
Mtb hypoxia inh growth: also measured in Mtb hypoxia inh; calls as there; growth inhibition, %; measured here: M. tuberculosis growth (absorbance);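 0% = vehicle and 100% = reference antibiotic; read after six days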
The depositor's hits bear a star; . = no result given; & = joins results of further samples. The order is random (roughly 4% active in at least one column).

SMILES	PrP UTR inh	BJeLR lethal	ugtP null kill	Bead autofluor	Mtb hypoxia inh	Mtb hypoxia inh growth	Sa RN4220 lethal
Cc1ccccc1N=C1SC(CC(=O)Nc2ccc3ccccc3c2)C(=O)N1Cc1ccccn1 (centres undefined)	-10	-15	.	2552	.	.	.
Cc1ccc(C(=O)c2cc([N+](=O)[O-])ccc2N2CCCCC2)cc1C	10	25	76	2300	2	3	-9.3
Cc1ccc(S(=O)(=O)N2CCCCC2)cc1NC(=O)CCOc1ccccc1	-2	7	8	2564	3	4	2.2
O=C(NCC(c1ccc(F)cc1)N1CCOCC1)c1ccc([N+](=O)[O-])o1 (centres undefined)	-42	.	9	3598	.	.	5.7
COC(=O)C1=C(C)N(Cc2ccccc2)C(=NCc2cccc(C(F)(F)F)c2)NC1c1cccc(F)c1 (centres undefined)	.	.	-11	.	2	11	62
Cc1cccc(C)c1C(OCCN(C)C)C1CCCCC1 (centres undefined)	-2	4	-8	2677	14	4	2.1
Cc1ccc(S(=O)(=O)C2C(=O)N(C)C3(C)CC2c2ccccc2O3)cc1 (centres undefined)	2	-6	3	2496	10	8	3.0
CCCOC1CCCN(C(=O)CCc2nnc(CCCCc3ccccc3)o2)C1 (centres undefined)	-5	1	6	4671	17	7	9.3
CCCC(=O)Nc1ccc2c(c1)C(=O)NC2=O	-16	-4	8	5344	5	1	1.0
Cc1ccc(S(=O)(=O)Nc2ccccc2C(=O)OC(C)C(=O)Nc2ccc3ccccc3c2)cc1[N+](=O)[O-] (centres undefined)	-15	0	-8	2631	3	-4	10
COc1cc(/C=N/NC(=O)c2cc(C3CC3)[nH]n2)ccc1O	-22	1	.	4329	.	.	.
O=[N+]([O-])c1ccc(Nc2nc(Cl)nc(NCCO)n2)cc1	-21	-23	17	3211	7	-6	2.2
O=c1c2ccccc2nc2n1C(CBr)CS2 (centres undefined)	-3	-4	8	4438	9	9	5.3
Cc1ccc(S(=O)(=O)NC2=NCN(CCc3ccccc3)CN2)cc1	-23	-3	1	4247	8	6	-0.3
O=C(Cc1ccccc1)N1CCN(S(=O)(=O)c2cccc([N+](=O)[O-])c2)CC1	-10	-3	2	3277	-6	-6	4.8
Cc1cc(NC(=O)CN2C(=O)NC3(CCCCCC3)C2=O)no1	-23	-4	5	3661	3	7	12
CC(C)(C)OC(=O)CNC(=O)c1[nH]cnc1C(=O)NC(Cc1ccccc1)C(=O)OC(C)(C)C (centres undefined)	.	.	-27	.	-4	-2	3.3
Cc1cccc2c(=O)cc(C)n(CC(=O)N3CCCCC3)c12	-23	1	-3	4390	7	13	2.5
CCCC(=O)Nc1nnc(CC(=O)N2CCCC2)s1	-12	5	7	3969	5	-7	3.0
O=C(CN1C(=O)C2C3CC(C(Br)C3Br)C2C1=O)OCC(=O)c1cccc([N+](=O)[O-])c1 (centres undefined)	-20	3	9	4035	-10	-1	3.0

Record cards (already shown). Order of values: PrP UTR inh, BJeLR lethal, ugtP null kill, Bead autofluor, Mtb hypoxia inh, Mtb hypoxia inh growth, Sa RN4220 lethal
O=c1c2ccccc2nc2n1C(CBr)CS2 (centres undefined) is listed with -3, -4, 8, 4438, 9, 9, 5.3
O=[N+]([O-])c1ccc(Nc2nc(Cl)nc(NCCO)n2)cc1 is listed with -21, -23, 17, 3211, 7, -6, 2.2
O=C(Cc1ccccc1)N1CCN(S(=O)(=O)c2cccc([N+](=O)[O-])c2)CC1 is listed with -10, -3, 2, 3277, -6, -6, 4.8
Cc1cccc2c(=O)cc(C)n(CC(=O)N3CCCCC3)c12 is listed with -23, 1, -3, 4390, 7, 13, 2.5

Some of the entries so far, with bars between the fields:
molecule | PrP UTR inh | BJeLR lethal | ugtP null kill | Bead autofluor | Mtb hypoxia inh | Mtb hypoxia inh growth | Sa RN4220 lethal
O=C(Cc1ccccc1)N1CCN(S(=O)(=O)c2cccc([N+](=O)[O-])c2)CC1 | -10 | -3 | 2 | 3277 | -6 | -6 | 4.8
O=C(CN1C(=O)C2C3CC(C(Br)C3Br)C2C1=O)OCC(=O)c1cccc([N+](=O)[O-])c1 (centres undefined) | -20 | 3 | 9 | 4035 | -10 | -1 | 3.0

The list continues:
SMILES	PrP UTR inh	BJeLR lethal	ugtP null kill	Bead autofluor	Mtb hypoxia inh	Mtb hypoxia inh growth	Sa RN4220 lethal
O=C(c1ccc(Cl)cc1)C12CN3CN(CN(C3)C1)C2	-15	8	-8	2998	8	8	-13
Cc1ccccc1N1CCN(Cc2ccc(Br)o2)CC1	-18	1	15	3760	11	6	5.6
Nc1ccccc1C(=O)NCC1(c2ccccc2)CCCC1	-6	-2	3	3440	9	1	5.0
COc1ccc(-c2cc(C(=O)Nc3c(C)n(C)n(-c4ccccc4)c3=O)no2)cc1OC	-5	4	3	6166	-2	4	6.6
O=C(NCCS(=O)CCNC(=O)C(F)(F)F)C(F)(F)F	-21	-7	0	3394	9	3	2.2
O=C(NNc1cc(N2CCOCC2)nc(N2CCOCC2)n1)c1ccc([N+](=O)[O-])cc1	-8	2	0	4562	9	2	7.2
O=C(Cc1ccccc1)NCC(=O)N/N=C/c1cccnc1	-24	-2	.	4584	.	.	.
O=C(NCC(c1cccnc1)N1CCN(c2ccccc2F)CC1)C1CCCCC1 (centres undefined)	-1	-10	-3	3429	5	11	-4.8
CCc1ccc(NC(=O)CC2S/C(=N/N=C3CCCCCC3)NC2=O)cc1 (centres undefined)	-2	2	-6	4410	2	4	4.1
O=C1CC(c2ccc(S(=O)(=O)NCc3ccncc3)cc2)CN1 (centres undefined)	-17	-1	6	5884	.	.	1.1
CC(Cc1ccccc1)Nc1ncnc2c1ncn2C1OC(CO)C(O)C1O (centres undefined)	-9	4	0&7	5303	5&3	-6&4	3.4&7.1
CCCNC(=O)c1c[nH]c2ccc(S(=O)(=O)N(C)c3ccc(OCC)cc3)cc2c1=O	.	0	-16	.	.	.	18
CCC(C)NC(=O)c1nc2c(nnn2Cc2ccccc2Cl)c(=O)[nH]1 (centres undefined)	-8	-3	.	5054	.	.	.
CCOc1ccc2c(c1)c1nc3ccccc3nc1n2C	-24	0	7	2921	9	5	1.6
CCCN(CCC)CCCNC(=O)CC1Nc2ccccc2NC1=O (centres undefined)	-11	-5	3	3521	8	3	8.4
CSc1ccccc1-c1n[nH]c(=S)o1	-22	6	8	4264	14	-3	13
CC(C)(C)c1nc2c(Br)cc(Br)cc2c(=O)o1	3	2	3	9016	-11	-11	-2.7
CCOc1ccc(N=Nc2c(=O)[nH]n3c(=O)cc(C)[nH]c23)cc1	2	18	14	3153	21	-4	23
CC(C)CC(=O)Nc1nnn(C)n1	-40	-2	-7	18519*	5	5	3.0
CCOC(=O)c1sc2nc(C)nc(Nc3ccc(OC)c(OC)c3)c2c1C	-34	1	-1	4016	-4	9	6.6
COc1ccccc1N/C(N)=N/c1nc(CSc2ccc(C)cc2)cc(=O)[nH]1	-10	-5	-7	3887	.	.	6.0
COc1cc(OC)c(NS(=O)(=O)c2cc3[nH]c(=O)c(=O)[nH]c3cc2C)cc1Cl	-6	-5	6	5208	1	0	4.2
C[C@]12CCC3[C@@H](CCC4=CC(=O)CC[C@@]43C=O)C1CCC2=O (some centres undefined)	-14	-6	-3	2819	7	1	0.9
CCOC(=O)C1CCC(CN(Cc2ccccc2C)S(=O)(=O)c2ccc([N+](=O)[O-])cc2)CC1 (centres undefined)	-9	-21	6	2520	12	3	3.3
O=c1[nH]c(=S)[nH]c2sc3c(c12)CCCCCC3	-5	7	0	4069	-3	9	2.5
NC(=NOC(=O)c1ccccc1F)c1cccc([N+](=O)[O-])c1	.	.	10	.	-1	-4	7.1
COc1cccc(S(=O)(=O)NCc2ccc(C(=O)N3CCN(C)CC3)cc2)c1	10	-2	10	4974	6	0	4.9
Cc1ccc(C(=O)Nc2nc(=O)n(C(=O)c3ccccc3Cl)s2)cc1	-61	8	0	4639	.	.	5.9
CC(C)CC(=O)N(c1ccc(F)cc1)C1C=CS(=O)(=O)C1 (centres undefined)	-18	6	4	7262	6	-11	1.4
O=[N+]([O-])c1cccc(CN2C[C@@]34C=CC(CC3S2(=O)=O)O4)c1 (some centres undefined)	.	.	1	.	3	10	1.4
CCc1cccc2c(C#N)cn(CC(=O)NCCOC)c12	-7	3	4	3606	2	3	-2.2
Cn1nnc2cc(C(=O)NCCC3=CCCCC3)ccc21	-32	4	2	2460	.	.	-0.1
CCC(=O)Nc1ccccc1Sc1ncnc2scc(-c3ccccc3)c12	-24	4	-2	9025	17	11	3.5
CC(=O)NC1=NN(C(C)=O)C(c2cccs2)S1 (centres undefined)	-7	-3	-1	10533	8	3	3.8
CCOc1ccc(CNC(=O)C2CCCN(S(=O)(=O)N3CC(C)CC(C)C3)C2)cc1OC (centres undefined)	-7	1	7	5385	5	8	1.4
O=C(Nc1ccccn1)c1ccccc1	-78	.	4	4155	9	6	6.1
CN1CCN(c2nc(-c3ccccc3)ncc2S(=O)(=O)c2ccccc2)CC1	-14	-12	4	3305	13	2	1.7
Cc1ccc(CSCC(=O)N2CCN(Cc3ccc4c(c3)OCO4)CC2)cc1	-1	6	-7	3717	.	.	1.6
O=C(CN1C(=O)C2CC=CCC2C1=O)OCC(=O)c1ccc(Cl)c([N+](=O)[O-])c1 (centres undefined)	-11	7	7	6121	9	-1	2.5
O=C(NNC(=O)c1cccc(-n2cnnn2)c1)c1ccccc1	-20	-3	1	4482	1	1	-0.5
O=S(=O)(c1ccccc1C(F)(F)F)N1CCOCC1	-19	12	1	3350	14	3	-9.5
C=CCc1ccc(OCC(O)CN2CCN(Cc3ccccc3)CC2)c(OC)c1 (centres undefined)	-21	1	2	2663	11	6	7.9
CCN(C(=O)Cc1nc(N)n[nH]1)C1(C(=O)Nc2ccccc2)CCCCC1	-98	-1	6	4088	-1	9	-0.2
O=C(CC1(CC(=O)N2CCOCC2)CCCC1)Nc1ccccc1	-10	.	3	3979	3	-1	2.4
C/C(=N\NC(=O)c1cccc(N/N=C(\C)c2ccco2)c1)c1ccco1	-13	-1	.	2493	.	.	.
CCC1CCCCN1C(=O)C1CC(c2cc(Cl)c(OC)cc2OC)=NO1 (centres undefined)	-3	1	-4	5380	-4	-1	-2.3
Cc1cc(C)c2c(N=NN3CCOCC3)[nH]nc2n1	-30	-6	26	2503	10	7	5.5
C=CCc1cccc2cc(C(=O)NC)c(=O)oc12	-14	2	-5	4287	.	.	-2.4
COc1ccc(CC(=O)NN=Cc2cccnc2)cc1OC	.	.	8	.	2	3	4.3
Cc1ccc(NC(=O)COC(=O)CN2C(=O)c3ccccc3C2=O)cc1	-20	.	7	8747	1	1	6.3
Continued.
SMILES	PrP UTR inh	BJeLR lethal	ugtP null kill	Bead autofluor	Mtb hypoxia inh	Mtb hypoxia inh growth	Sa RN4220 lethal
Cc1ccc(S(=O)(=O)N/N=C/c2c(F)cccc2Cl)cc1	2	-6	.	2039	.	.	.
O=C(Cc1cc(=O)[nH][nH]1)N/N=C/c1cccc2ccccc12	-21	-6	.	2340	.	.	.
CC1Cc2ccccc2N1S(=O)(=O)c1cnc(Cl)c(Cl)c1 (centres undefined)	-17	-2	-6	4267	-1	12	-2.1
O=C(O)CSCC(=O)Nc1ccc(C(=O)O)cc1	1	4	3	4591	.	.	1.8
Cc1sc(NN=C/C=C/c2ccccc2)nc1-c1ccccc1	.	.	16	.	.	.	0.4
CN(C)CCN(C(=O)/C=C/c1cccs1)c1nc2ccc(Br)cc2s1	-25	-2	-9	5965	4	-2	-4.1
Cc1cccc(C(=O)ON=C(N)c2ccc(Br)cc2)c1	.	.	-5	.	1	3	-0.9
Cc1ccc2cc(/C=C(\C#N)C(N)=O)c(N3CCCCC3)nc2c1	-24	-5	0	2368	-5	5	-5.0
CN(Cc1ccccc1)CC(O)COc1ccc(CNCCc2ccncc2)cc1 (centres undefined)	-17	-6	7	4859	11	14	2.9
CCc1ccc(N2CC(C(=O)N/N=C/c3cc([N+](=O)[O-])ccc3O)CC2=O)cc1 (centres undefined)	-3	-7	.	4781	.	.	.
FC(F)(F)c1ccccc1NC(=S)NC1CCN(Cc2ccccc2)CC1	-27	3	6	4593	1	6	-1.4
COc1ccc(C(NC(=O)CNC(C)=O)C(=O)Nc2ccc(C(C)C)cc2)cc1 (centres undefined)	-10	-2	1	8729	0	9	1.3
Cc1ccc(-c2csc3ncnc(Oc4ccc5c(C)cc(=O)oc5c4)c23)cc1	-24	4	-7	2114	-11	3	4.0
CC(/C=C/c1ccco1)=N\NC(=O)c1cccnc1	-12	-5	.	9210	.	.	.
CC(=O)c1cccc(NC(=O)NCCc2ccc(Cl)cc2)c1	-29	-1	10	4533	4	-3	5.3

High-throughput results: PubChem, several laboratories
